TRPML1 agonist: qHTS for Agonists of the Human Mucolipin Transient Receptor Potential 1 (TRPML1). Mucolipin-1 (Homo sapiens), Q9GZU1. TRPML1-expressing cells, Ca2+ dye fluorescence, FDSS; host cell line not named in the record; reference of the full effect not given here. activation, % (no concentration beside the values). 410,000 compounds, 0.12% hits; in the data active = activation above about 50%; inconclusive = about 30% to 50%; inactive = below about 30%; note: 0% is about no effect; the text of the record puts the active cut at 80%
Target sequence (Q9GZU1 whole entry, looked up): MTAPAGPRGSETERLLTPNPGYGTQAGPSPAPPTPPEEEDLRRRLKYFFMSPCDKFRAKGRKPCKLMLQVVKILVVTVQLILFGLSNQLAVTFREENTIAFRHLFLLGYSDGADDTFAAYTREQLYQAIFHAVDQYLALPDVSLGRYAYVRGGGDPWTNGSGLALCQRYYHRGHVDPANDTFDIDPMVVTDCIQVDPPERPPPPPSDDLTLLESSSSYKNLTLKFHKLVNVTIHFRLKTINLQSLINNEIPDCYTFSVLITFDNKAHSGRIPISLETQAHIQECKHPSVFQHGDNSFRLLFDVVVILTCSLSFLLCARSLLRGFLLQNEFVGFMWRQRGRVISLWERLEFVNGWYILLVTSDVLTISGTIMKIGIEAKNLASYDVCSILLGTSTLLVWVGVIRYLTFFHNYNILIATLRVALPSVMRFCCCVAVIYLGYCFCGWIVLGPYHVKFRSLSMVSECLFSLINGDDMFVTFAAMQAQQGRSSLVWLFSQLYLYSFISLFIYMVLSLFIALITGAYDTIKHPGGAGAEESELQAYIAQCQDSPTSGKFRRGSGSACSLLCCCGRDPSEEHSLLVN
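Tet-induced TRPML1-DL cells, 1,500 per well, cultured overnight, were loaded with a no-wash Ca2+ dye for 45–90 min. Calcium fluorescence was recorded on the FDSS for 110 s after compound addition, before the EC80 agonist (4 uM 54-4) was added.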
Six1-Eya2 inh: qHTS Assay for Inhibitors of the Six1/Eya2 Interaction; Homeobox protein SIX1 (Homo sapiens) + Protein phosphatase EYA2 (Homo sapiens), …; AlphaScreen GST-Six1/His-Eya2 binding, biochemical; stronger effect = lower value; control for the full effect not named in the record; activity change, % (no concentration beside the values); 360,000 compounds, 0.56% hits; in the data active = activity change below about -65%; inconclusive = about -30% to -65%; inactive = above about -30%; note: % is set by controls: 0 for no effect and ±100 for the full control effect
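AlphaScreen luminescence read after one hour at 37 °C in darkness. Pin-transferred compounds met GST-Six1 and His-Eya2 protein (5X stock 250 nM/500 nM) plus glutathione donor and Ni-chelate acceptor beads (5X, 50 ug/mL).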
D2 PAM: Beta-Arrestin HTS for Positive Allosteric Modulators of the Human D2 Dopamine Receptor: Potentiators; D(2) dopamine receptor (Homo sapiens), P14416; DiscoveRx D2 beta-arrestin cells, luminescence, 90 min; 100% = 57 uM dopamine signal; potentiation, % (no concentration beside the values); 360,000 compounds, 0.23% hits; AID 624464, 2012; active = potentiation of 50% or more; inconclusive = 30% to 50%; inactive = 30% or less;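 note: compound concentration not given in the record; tested on top of an EC20 dose of dopamine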
Target sequence (P14416 whole entry, looked up): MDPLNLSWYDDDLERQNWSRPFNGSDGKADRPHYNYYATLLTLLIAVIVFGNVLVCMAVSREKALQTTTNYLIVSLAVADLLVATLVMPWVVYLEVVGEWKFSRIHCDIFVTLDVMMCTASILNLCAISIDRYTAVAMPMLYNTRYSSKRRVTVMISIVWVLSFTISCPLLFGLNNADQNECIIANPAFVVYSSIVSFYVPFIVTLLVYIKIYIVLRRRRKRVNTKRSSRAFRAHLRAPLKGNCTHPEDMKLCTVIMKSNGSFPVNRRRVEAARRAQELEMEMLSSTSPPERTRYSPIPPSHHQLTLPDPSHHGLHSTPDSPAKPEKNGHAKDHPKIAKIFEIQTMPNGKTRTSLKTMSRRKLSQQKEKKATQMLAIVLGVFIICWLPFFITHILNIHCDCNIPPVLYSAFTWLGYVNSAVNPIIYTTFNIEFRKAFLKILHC
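PathHunter D2 cells, attached overnight at 37 deg C, received compound in DMSO plus dopamine at EC20 (50 nM final) for 90 min at 37 deg C. Beta-arrestin recruitment was read as luminescence after 1 h with detection reagent at ambient temperature.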
TRPML1 blocker: qHTS for Inhibitors of the Human Mucolipin Transient Receptor Potential 1 (TRPML1); Mucolipin-1 (Homo sapiens), Q9GZU1; TRPML1-inducible cells, Ca2+ dye fluorescence, FDSS; stronger effect = lower value; inhibition of EC80 agonist-evoked calcium signal; activity change, negative = inhibition, % (no concentration beside the values); 390,000 compounds, 0.02% hits; AID 624415, 2012; in the data active means activity change below about -50%; inconclusive means about -30% to -50%; inactive means above about -30%;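 note: stimulus is agonist 54-4 at its EC80 concentration; % is set by controls: 0 for no effect and ±100 for the full control effect; compound concentration not given in the record; the text of the record puts the active cut at -80%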
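Tet-induced TRPML1-DL cells loaded with Ca8 no-wash calcium dye were read kinetically on FDSS. Compound addition was followed by EC80 agonist 54-4 (4 uM final); inhibition was read over 110 s.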
CtBP-E1A blk: qHTS Assay for Inhibitors of the CtBP/E1A Interaction | AID 651724, 2012 | AlphaScreen GST-E1A/His-CtBP binding, 1536-well; stronger effect = lower value; control for the full effect not named in the record | 340,000 compounds, 0.49% hits | activity change, % (concentration not given with the values) | CtBP / adenovirus E1A interaction (AlphaScreen); in the data active means activity change below about -65%; inconclusive means about -30% to -65%; inactive means above about -30%; note: % is set by controls: 0 for no effect and ±100 for the full control effect
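Steps: dispense buffer (Tris pH 8.0, NaCl 300 mM, TCEP 1 mM, BSA, Tween 20); add 5X protein mix (GST-E1A, His-CtBP, 125 nM each); pin 23 nL compound; 2 h at 37 °C, dark; add 5X beads (50 ug/mL); 1 h; read.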
TRPV1 PAM: HTS Assay for Compounds that Act as Potentiators of the Vanilloid Receptor 1; 320,000 compounds, 0.02% hits; Transient receptor potential cation channel subfamily V member 1 (Homo sapiens), Q8NER1; AID 540277, 2011; TRPV1-expressing cells, Fluo-8 calcium influx, capsaicin EC20 potentiation; host cell line not named in the record; control for the full effect not named in the record; potentiation, % at 8.33 µM; active means potentiation above 80%; inconclusive means 30% to 80%; inactive means below 30%; note: 0% is about no effect
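Cells expressing TRPV1 were dye-loaded with Fluo-8 and read kinetically: 10 s baseline, 3 min after compound (agonist portion), then 2 min after EC20 capsaicin (allosteric enhancer portion). Calcium-bound dye fluorescence at 480/520 nm.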
* hit, by the source's call.

Screening CN(C)c1ccc(C(=S)N2CCN(c3ccccc3)CC2)cc1 returned TRPML1 agonist 3.6, Six1-Eya2 inh inconclusive, D2 PAM -8, TRPML1 blocker 29, CtBP-E1A blk inconclusive and TRPV1 PAM 27.
COc1ccc([C@H]2CC(=O)C[C@@H](CCn3ccnn3)O2)cc1 was read as TRPML1 agonist -0.4, Six1-Eya2 inh 8 and CtBP-E1A blk -21.
For Cc1cc(OCCCC(=O)Nc2cc(S(=O)(=O)N3CCOCC3)ccc2N2CCOCC2)ccc1Cl the results were TRPML1 agonist 2.3, Six1-Eya2 inh 1, D2 PAM -6, TRPML1 blocker 4 and CtBP-E1A blk -2.
For Fc1ccccc1COc1ccc2ccccc2c1CNc1nn[nH]n1 the results were TRPML1 agonist 0.4, Six1-Eya2 inh 1, D2 PAM -4, TRPML1 blocker 1, CtBP-E1A blk 4 and TRPV1 PAM 0.
Screening Cc1cccc(Nc2nnc(SCc3cn4ccsc4n3)s2)c1 returned TRPML1 agonist 2.8, Six1-Eya2 inh -17, D2 PAM 0, TRPML1 blocker -12, CtBP-E1A blk -25 and TRPV1 PAM 16.
For COc1ccc(C2C(C(=O)N3CCN(c4ccccn4)CC3)CCC(=O)N2c2cc(OC)c(OC)c(OC)c2)cc1 (centres undefined) the results were TRPML1 agonist -0.9, Six1-Eya2 inh 6, D2 PAM 9, TRPML1 blocker -25, CtBP-E1A blk 6 and TRPV1 PAM -1.
Screening O=C(CN1C(=O)NC2(CCCC2)C1=O)Nc1cc(S(=O)(=O)N2CCCCC2)ccc1Cl returned TRPML1 agonist 2.1, Six1-Eya2 inh -1, D2 PAM -2, TRPML1 blocker -3 and CtBP-E1A blk -2.
CN(C)S(=O)(=O)c1ccc(Cl)c(NC(=O)CN2CCN(Cc3ccc4c(c3)OCO4)CC2)c1 was read as TRPML1 agonist -0.9, Six1-Eya2 inh -13, D2 PAM -25, TRPML1 blocker -10 and TRPV1 PAM -3.
Screening CC(=O)NC(CCS(C)(=O)=O)C(=O)Nc1ccc(C)c(F)c1 (centres undefined) returned TRPML1 agonist 0.6, Six1-Eya2 inh 0, D2 PAM -7, TRPML1 blocker -5, CtBP-E1A blk -3 and TRPV1 PAM 1.
`O=C(CN1CCN(c2ncc(C(F)(F)F)cc2Cl)CC1)NCCNc1ncc(C(F)(F)F)cc1Cl` gave TRPML1 agonist 0.0, Six1-Eya2 inh -7, D2 PAM -8, TRPML1 blocker -3, CtBP-E1A blk 4 and TRPV1 PAM -8.
For Cc1nc2c(-c3ccccc3)c(C)nn2c(C)c1CC(=O)O the results were TRPML1 agonist -0.7, Six1-Eya2 inh 8, D2 PAM -3, TRPML1 blocker -14, CtBP-E1A blk -1 and TRPV1 PAM 5.
`N#CCC(=O)N1CCN(C(c2ccccc2)c2ccccc2)CC1` gave TRPML1 agonist 1.3, Six1-Eya2 inh -5, D2 PAM -1, TRPML1 blocker -9 and CtBP-E1A blk 0.
`CC(=O)c1ccc(N2C(=O)C3C(C2=O)C(C(=O)c2ccc(Cl)cc2)N2CCCC32)cc1` (centres undefined) gave TRPML1 agonist 2.9, Six1-Eya2 inh -9, D2 PAM 23, TRPML1 blocker 0, CtBP-E1A blk 6 and TRPV1 PAM -3.
O=c1c2oc3nc4c(cc3c2ncn1CCCc1ccccc1)CCCC4 was read as TRPML1 agonist 0.0, Six1-Eya2 inh -17, D2 PAM -7, TRPML1 blocker 11 and CtBP-E1A blk 4.
Screening O=C(Nc1ccc(Cl)c(Cl)c1)N1CC=CCC1 returned TRPML1 agonist -0.9, Six1-Eya2 inh -4, D2 PAM -14, TRPML1 blocker 9, CtBP-E1A blk 3 and TRPV1 PAM -22.
For CCSC1=NC(C)(C)C=C(C)N1 the results were TRPML1 agonist 0.0, Six1-Eya2 inh -14, D2 PAM -5, TRPML1 blocker -2, CtBP-E1A blk -6 and TRPV1 PAM 8.
Screening Cc1ccc(C)c(NC(=O)CN(C)C(=O)/C=C/c2ccco2)c1 returned TRPML1 agonist -0.8, Six1-Eya2 inh 6, D2 PAM -28, TRPML1 blocker 4, CtBP-E1A blk -10 and TRPV1 PAM 4.
CC(/C=N/NC(=O)COc1ccccc1C)=N\NC(=O)COc1ccccc1C was read as TRPML1 agonist 0.5, Six1-Eya2 inh 0, D2 PAM -2, TRPML1 blocker 87, CtBP-E1A blk 1 and TRPV1 PAM 23.
For O=S(=O)(c1ccc(Cl)cc1)N1CCCC1c1nc(-c2cccc(Cl)c2)no1 (centres undefined) the results were TRPML1 agonist 0.7, Six1-Eya2 inh 10, D2 PAM 5, TRPML1 blocker 85, CtBP-E1A blk 16 and TRPV1 PAM 16.
CS(=O)(=O)N(CC(=O)N1CCCCC1)c1cccc(F)c1 was read as TRPML1 agonist -0.2, Six1-Eya2 inh -4, D2 PAM -1, TRPML1 blocker -4, CtBP-E1A blk 2 and TRPV1 PAM 12.

Reprinted from above, 4 compounds:
COc1ccc([C@H]2CC(=O)C[C@@H](CCn3ccnn3)O2)cc1 was read as TRPML1 agonist -0.4, Six1-Eya2 inh 8 and CtBP-E1A blk -21.
For Cc1cc(OCCCC(=O)Nc2cc(S(=O)(=O)N3CCOCC3)ccc2N2CCOCC2)ccc1Cl the results were TRPML1 agonist 2.3, Six1-Eya2 inh 1, D2 PAM -6, TRPML1 blocker 4 and CtBP-E1A blk -2.
For Fc1ccccc1COc1ccc2ccccc2c1CNc1nn[nH]n1 the results were TRPML1 agonist 0.4, Six1-Eya2 inh 1, D2 PAM -4, TRPML1 blocker 1, CtBP-E1A blk 4 and TRPV1 PAM 0.
Screening Cc1cccc(Nc2nnc(SCc3cn4ccsc4n3)s2)c1 returned TRPML1 agonist 2.8, Six1-Eya2 inh -17, D2 PAM 0, TRPML1 blocker -12, CtBP-E1A blk -25 and TRPV1 PAM 16.

Next results.
`CCCCCCn1c(=O)c(C(=O)N/N=C/c2cccc(F)c2)c(O)c2ccccc21` gave TRPML1 agonist -0.2, Six1-Eya2 inh 3, D2 PAM -6, TRPML1 blocker 0, CtBP-E1A blk 1 and TRPV1 PAM -7.
CC(N)c1csc(Nc2ccc(C(=O)NCCCO)cn2)n1 (centres undefined) was read as TRPML1 agonist -0.6, Six1-Eya2 inh -69*, D2 PAM -6 and CtBP-E1A blk -83*.
`COC(=O)c1ccc(C(=O)NCCCCO)cc1` gave TRPML1 agonist 0.1, Six1-Eya2 inh 1, D2 PAM -5, TRPML1 blocker 7, CtBP-E1A blk 5 and TRPV1 PAM -3.
NC(=O)CN1CCN(c2cccc(Cl)c2)CC1 was read as TRPML1 agonist 0.2, Six1-Eya2 inh 14, D2 PAM -2, TRPML1 blocker -5, CtBP-E1A blk 0 and TRPV1 PAM 0.
Screening CCN(c1ccccc1)S(=O)(=O)c1ccc(C(=O)NC2CCN(Cc3ccccc3)CC2)cc1 returned TRPML1 agonist -0.2, Six1-Eya2 inh -9, D2 PAM -20, TRPML1 blocker 50 and CtBP-E1A blk -1.
Screening COc1ccc(C(=O)NCCN2CCN(C(=O)c3ccc(OC)cc3)CC2)cc1 returned TRPML1 agonist 0.2, Six1-Eya2 inh -3, D2 PAM -27, TRPML1 blocker -4, CtBP-E1A blk 5 and TRPV1 PAM -8.
Screening Cc1ccc2nc(C3CCN(S(=O)(=O)c4ccc5ccccc5c4)CC3)[nH]c2c1 returned TRPML1 agonist 2.5, Six1-Eya2 inh -10, D2 PAM 1, TRPML1 blocker 0, CtBP-E1A blk 8 and TRPV1 PAM -14.
`COc1ccc(C(=O)CSc2nnc(CN3CCCCC3)n2-c2ccc(F)cc2)cc1OC` gave TRPML1 agonist 4.4, Six1-Eya2 inh 4, D2 PAM -8, TRPML1 blocker -25, CtBP-E1A blk -14 and TRPV1 PAM -8.
Screening CCOc1ccc(OCCCC(=O)Nc2cc(Cl)ccc2-n2cncn2)cc1 returned TRPML1 agonist 5.8, Six1-Eya2 inh -1, D2 PAM 8, TRPML1 blocker 17, CtBP-E1A blk -11 and TRPV1 PAM -1.
For COc1ccc(N(CC(=O)Nc2ccc3c(c2)OCO3)S(=O)(=O)c2ccccc2)cc1 the results were TRPML1 agonist -0.4, Six1-Eya2 inh -2, D2 PAM 1, TRPML1 blocker -4, CtBP-E1A blk 0 and TRPV1 PAM 2.
For N#CC(=Cc1ccnc2ccccc12)c1ccccc1 the results were TRPML1 agonist 0.4, Six1-Eya2 inh -12, D2 PAM -11, TRPML1 blocker -1 and CtBP-E1A blk -13.
`CC(C)CNC(=O)c1cccc(NC(=O)COc2cccc([N+](=O)[O-])c2)c1` gave TRPML1 agonist -0.6, Six1-Eya2 inh 5, D2 PAM 5, TRPML1 blocker 7, CtBP-E1A blk 2 and TRPV1 PAM -4.
Screening O=C(c1ccc(OC2CCN(CCc3ccccc3)CC2)cc1)N1CCC(CO)CC1 returned TRPML1 agonist 0.0, Six1-Eya2 inh 1, D2 PAM -25, TRPML1 blocker 2, CtBP-E1A blk -3 and TRPV1 PAM -5.
For O=C(NC1CC1)C1=C[C@H](c2ccc3c(c2)OCO3)C[C@H](OCc2ccc(CO)cc2)O1 the results were TRPML1 agonist -0.8, Six1-Eya2 inh -2, D2 PAM -11, TRPML1 blocker 3, CtBP-E1A blk 1 and TRPV1 PAM 29.
`CCCc1[nH]c2ccc(C#N)cc2c1CCC` gave TRPML1 agonist 0.1, Six1-Eya2 inh -10, D2 PAM -6, TRPML1 blocker 10, CtBP-E1A blk 8 and TRPV1 PAM -9.
For Cc1cc([N+](=O)[O-])nn1CCCC(=O)Nc1cc(Oc2ccccc2)cc([N+](=O)[O-])c1 the results were TRPML1 agonist 0.6, Six1-Eya2 inh 0, D2 PAM -13, TRPML1 blocker 30, CtBP-E1A blk 4 and TRPV1 PAM -11.
Screening Cc1ccccc1OCCCCn1c(CO)nc2ccccc21 returned TRPML1 agonist -0.4, Six1-Eya2 inh -2, D2 PAM -4, TRPML1 blocker 15, CtBP-E1A blk 4 and TRPV1 PAM 3.
Screening Cc1ccc(/C=C2\SC(=S)N(CCCC(=O)Nc3ccccn3)C2=O)cc1 returned TRPML1 agonist -0.4, Six1-Eya2 inh -5, D2 PAM -2, TRPML1 blocker -9, CtBP-E1A blk -6 and TRPV1 PAM -6.
CC(=O)c1sc(=S)n(-c2ccc(Cl)cc2)c1C was read as TRPML1 agonist -0.1, Six1-Eya2 inh -6, D2 PAM -10, TRPML1 blocker 28 and TRPV1 PAM 6.

Screening results from PubChem BioAssay.
